From PubChem
KCNQ2 block: KCNQ2 channel blockers in CHO-K1 cells – cell-based, FluxOR thallium flux, B-score, primary screen (AID 2156). O88943. 20 min; active compounds read low; only compounds with negative scores are shown here; some inactives read as strong as hits. B-score at 10 µM. hit rate 1.1% among 310,000;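 active = fluorescence ratio B-score at most minus 3 library SDs, with starting brightness B-score within 2 library SDs, cut at about -5.5 in these data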
Target sequence (O88943 whole entry, looked up): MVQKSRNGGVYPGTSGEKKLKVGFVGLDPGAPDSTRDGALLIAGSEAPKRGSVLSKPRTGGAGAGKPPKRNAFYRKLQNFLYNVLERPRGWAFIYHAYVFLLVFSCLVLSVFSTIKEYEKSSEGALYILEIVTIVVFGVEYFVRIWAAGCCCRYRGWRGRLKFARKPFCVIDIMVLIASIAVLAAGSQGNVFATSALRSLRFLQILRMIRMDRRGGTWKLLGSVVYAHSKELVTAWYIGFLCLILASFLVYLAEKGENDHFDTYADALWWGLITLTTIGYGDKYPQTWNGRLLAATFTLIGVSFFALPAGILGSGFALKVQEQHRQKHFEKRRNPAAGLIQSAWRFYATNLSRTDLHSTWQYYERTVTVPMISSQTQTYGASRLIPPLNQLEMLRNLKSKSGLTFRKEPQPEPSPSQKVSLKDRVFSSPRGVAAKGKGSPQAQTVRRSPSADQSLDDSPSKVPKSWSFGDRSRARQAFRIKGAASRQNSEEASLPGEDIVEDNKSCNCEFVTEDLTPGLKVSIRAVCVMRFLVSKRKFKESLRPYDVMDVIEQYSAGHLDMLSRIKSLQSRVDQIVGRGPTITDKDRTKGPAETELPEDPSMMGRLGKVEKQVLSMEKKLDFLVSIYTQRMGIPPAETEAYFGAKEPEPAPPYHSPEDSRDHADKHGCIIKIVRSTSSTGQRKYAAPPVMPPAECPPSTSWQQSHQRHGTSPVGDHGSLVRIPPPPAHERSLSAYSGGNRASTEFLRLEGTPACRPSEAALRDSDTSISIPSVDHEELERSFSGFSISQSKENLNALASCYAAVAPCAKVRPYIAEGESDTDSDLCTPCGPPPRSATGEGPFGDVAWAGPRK
KCNQ2 block baseline: recorded beside KCNQ2 block, whose call it bears; B-score; measured here: initial fluorescence intensity artifact check;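 brightness before thallium and not channel activity; 0 = typical well and far values either way flag optical interference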
* marks the source's active call; other numbers are inactive results; i = inactive.

structure | KCNQ2 block baseline | KCNQ2 block
C[C@]12C=CC(=O)C=C1CCC1C3CC[C@](O)(C(=O)CO)[C@@]3(C)CC3OC312 (some centres not stated) | -0.27 | i
O=C(c1cnc(-c2ccc(Cl)cc2)s1)c1ccc(Cl)cc1Cl | 0.22 | i
Cc1ccccc1C(=O)N1CCN(c2ccc(NC(=O)c3cccs3)cc2)CC1 | -0.31 | i
Cc1ccc(C(=O)/C=C/C(=O)c2ccc(C)cc2)cc1 | 1.82* | -7.53*
Cc1c(C)c2ccc(OCC(=O)NC(Cc3c[nH]c4ccc(O)cc34)C(=O)O)c(C)c2oc1=O (configuration not stated) | 0.17 | i
O=C(Cn1cc(C(F)(F)F)cc(Cl)c1=O)NCc1ccc(Cl)cc1Cl | 0.02 | i
c1cnc(Sc2ccc3nnnn3n2)nc1 | -0.71 | i
CC(C)CCNC(=O)C(c1ccco1)N(CC1CCCO1)C(=O)Cn1nnc2ccccc21 (configuration not stated) | -1.16 | i
Cc1cc(N2CCN(c3ccccc3)CC2)nc(-c2ccccc2)n1 | -0.38 | i
O/N=C1/CCCSc2ccccc21 | 0.77 | i
N#Cc1ccccc1CN1C(=O)S/C(=C/c2cccn2-c2cccc(C(=O)O)c2)C1=O | 0.04 | i
O=C(NNC(=O)c1cccs1)c1ccc(Cl)cc1 | 1.08 | i

Remaining list, next part
structure | KCNQ2 block baseline | KCNQ2 block
O=S(=O)(c1cccc(-c2cn3ccccc3n2)c1)N1CCCC1 | -0.13 | i
CC1CN(c2nc3ccccc3nc2SCC(=O)Nc2ccc(F)cc2)CC(C)O1 (configuration not stated) | -1.27 | i
CCC(NC(=O)c1oc2ccccc2c1COC)c1ccc(OC)cc1 (configuration not stated) | 0.24 | i
Cc1nnc(NC(=O)c2ccc(-c3ccc([N+](=O)[O-])cc3)o2)s1 | 0.22 | i
CC(C)(C)Nc1nc(N)nc(Cl)n1 | 0.72 | i
Cc1cccc2c(C(=O)n3cccn3)cc(-c3ccccc3Cl)nc12 | 10.1 | i
S=C1NC[C@H](CC2CCCCC2)N1CCCCC1CCCCC1 | 0.94 | i
CCOC(=O)CNC(=O)CSc1nnc(-c2ccccc2)c(-c2ccccc2)n1 | 0.76 | i
COc1ccc(OC)c(NC(=O)c2cc(S(=O)(=O)N3CCCC3)cn2C)c1 | -0.13 | i
O=C(CCN1CCOCC1)Nc1ccc(Cl)cc1 | 0.91 | i
Cc1onc(-c2ccccc2)c1C(=O)N1CCOCC1 | 0.54 | i
Nn1c(SCc2ccc(F)cc2)nnc1-c1ccccn1 | 3.57 | i

Additional results follow:
structure | KCNQ2 block baseline | KCNQ2 block
O=C(Nc1ccccc1)N1CCC(O)(c2cccc(C(F)(F)F)c2)CC1 | 0.19 | i
CCC/C(=N\NC(=O)C1CCCC1)c1ccccc1 | -0.02 | i
Cc1ccccc1NC(=O)c1cc(C(=O)c2cc(Cl)ccc2O)cn(-c2ccccc2C)c1=O | -1.32* | -5.6*
CC(C)NC(=S)N/N=C1\CCCc2ccccc21 | -1.5 | i
Cc1cc(SCC(=O)c2ccccc2)nc(C)n1 | -1.81 | i
COc1cccc(N2C(=O)Nc3ccc(Br)cc3C2(O)C(=O)NCCCOC(C)C)c1 (configuration not stated) | -0.99 | i
CC(=O)c1cc2c(cc1NC(=O)CN1CCC(Cc3ccccc3)CC1)OCO2 | 2.14 | i
Cc1cc(SCc2ccc(Cl)cc2)nc(=O)[nH]1 | 0.35 | i
CS(=O)(=O)N(CC(=O)Nc1ccc2c(c1)OCO2)Cc1ccc(Cl)cc1 | -0.4 | i
COc1cc(C(C2C(=O)CC(C)(C)CC2=O)C2C(=O)CC(C)(C)CC2=O)cc(OC)c1OC | 0.37 | i
COc1ccc(-c2cc(C(F)(F)F)n3nc(C(=O)NCCN4CCOCC4)cc3n2)cc1 | 0.01 | i
CCOc1ccccc1/C=N/NC(=O)c1nnn(-c2nonc2N)c1CN1CCC(C)CC1 | 0.03 | i

New compounds follow:
structure | KCNQ2 block baseline | KCNQ2 block
COc1cc(NS(=O)(=O)c2cc(C(=O)N3CCN(C(C)=O)CC3)ccc2OC)cc(OC)c1 | 0.45 | i
COCCN(C(=O)CCCC(=O)Nc1ccccn1)C(C(=O)NC1CCCC1)c1ccc(C)cc1 (configuration not stated) | -0.29 | i
CC(C)(C)NCC(O)COc1ccc(Br)cc1 (configuration not stated) | 0.02 | i
COc1ccc(-c2cc(-c3ccc(OC)cc3)nc(-c3ccc4c(c3)NC(=O)CO4)c2)cc1 | -0.76 | i
CC(C)(C)NC(=S)NC(=O)C12CC3CCC(CC(C3)C1)C2 | 1.51 | i
Cc1cccc(N2CCN(C(=O)c3ccc(-n4cncn4)c([N+](=O)[O-])c3)CC2)c1C | 2.27 | i
O=C(Nc1cc(Cl)ncn1)c1ccccc1 | 2.07 | i
CC(Cc1ccccc1)NC(=O)c1cc2ccccc2o1 (configuration not stated) | 1.69 | i
COc1ccc(/C=C2\SC(N)=NC2=O)cc1 | 0.68 | i
O=C(COCc1ccccc1)N[C@@H](Cc1ccc(O)cc1)C(=O)O | 0.88 | i
COCCN(Cc1ccccc1)C(=O)c1cc(-c2ccc(OC)c(OC)c2)nc2ccccc12 | -2.77* | -8.92*
COc1ccc(OC)c(N(CC(=O)Nc2ccc(NC(C)=O)cc2)S(C)(=O)=O)c1 | 0.52 | i

Sorted by the number under KCNQ2 block baseline (high to low): 3 from the list above
structure | KCNQ2 block baseline | KCNQ2 block
COc1ccc(OC)c(NC(=O)c2cc(S(=O)(=O)N3CCCC3)cn2C)c1 | -0.13 | i
Cc1ccccc1C(=O)N1CCN(c2ccc(NC(=O)c3cccs3)cc2)CC1 | -0.31 | i
Cc1ccccc1NC(=O)c1cc(C(=O)c2cc(Cl)ccc2O)cn(-c2ccccc2C)c1=O | -1.32* | -5.6*

(further entries)
structure | KCNQ2 block baseline | KCNQ2 block
CC(=O)/C=C1\N(C)c2ccc(C)cc2C1(C)C | 0.41 | i
Cc1ccc(CCNC(=O)CCn2c(=O)c3cccn3c3ccc(F)cc32)cc1 | -1.69 | i
CCc1ccc(N(CC(=O)NC(C)(C)CC)C(=O)CCC(=O)Nc2nccs2)cc1 | -0.72 | i
O=C(O)CCNc1ccc(NCCC(=O)O)c2c1C(=O)c1ccccc1C2=O | 1.18 | i
O=c1[nH]c(CN2CCN(C/C=C/c3ccccc3)CC2)nc2ccccc12 | 0.91 | i
CCOC(=O)C1=C(c2ccccc2)O/C(=C(\C(=O)OC)C(F)(F)F)S1 | -1.37 | i
CCCN1CCc2c(sc3nc(SCC)n(-c4ccc(OC)cc4)c(=O)c23)C1 | 2.62 | i
Cc1cc(C)n2c(SCC(C)C)nnc2n1 | 0.31 | i
Cc1ccc(CNC(=O)CCCn2c(=O)[nH]c3ccccc3c2=O)cc1 | 0.67 | i
O=C(OCC(=O)N1CCN(C(=O)c2ccco2)CC1)c1cc(-c2cccc(Br)c2)nc2ccccc12 | -1.63* | -7.01*
Cc1ccc(C)c(NC(=O)CN(C)C(=O)Cc2ccc(Cl)cc2Cl)c1 | 1.87 | i
Cc1cc([N+](=O)[O-])ccc1N1C(=O)c2ccc(C(=O)Nc3ccccc3C(=O)O)cc2C1=O | -3.59 | i

Other structures
structure | KCNQ2 block baseline | KCNQ2 block
CCC(C)[C@H](NC(=O)C1CCC(CNC(=O)[C@@H]2CCCN2C(=O)OC(C)(C)C)CC1)C(=O)O (some centres not stated) | 0.87 | i
CCCCOCCCNC(=O)COc1ccccc1 | 0.76 | i
Cc1ccc(C)c(NC2=NS(=O)(=O)c3ccccc32)c1 | 0.24 | i
C/C(=N\N=C(c1ccccc1)c1ccccc1)c1cccs1 | 1.29 | i
O=C(Nc1ccc(S(=O)(=O)N2CCCCC2)cc1)c1ccc(CN2CCc3ccccc3C2)cc1 | 0.23 | i
COc1cccc(CNC(=O)CCNC(=O)c2ccc(Br)o2)c1 | -0.06 | i
COc1ccc(-c2cc(C(=O)N3CCN(C(c4ccccc4)c4ccccc4)CC3)no2)cc1 | -0.02 | i
CCCCOc1ccc(/C=C/C(=O)OCC(=O)N2CC(=O)Nc3ccccc32)cc1OCC | 0.81 | i
O=C1CSC(=Nc2ccccc2)N1 | -0.27 | i
CCCc1cc(NCc2ccccn2)n2nc(C)c(-c3ccccc3)c2n1 | -1.96 | i
O=C(NCCCN1CCOCC1)c1cccc(S(=O)(=O)Nc2ccccc2Cl)c1 | 2.89 | i
COc1ccc(CCNC(=O)c2cc3c(=O)n4ccccc4nc3n(CC3CCCO3)c2=N)cc1OC (configuration not stated) | -0.14 | i

Further structures.
structure | KCNQ2 block baseline | KCNQ2 block
Cc1ccc(Nc2ncnc3sc(C)c(C)c23)cc1C | 0.68 | i
CCN(Cc1ccccc1)C(=O)c1cc2c(OC)c(OC)c(OC)cc2[nH]1 | 0.29 | i
CCCCN(CCCC)CCNC(=O)c1cn(CC)c2ccc(S(=O)(=O)N(C)C3CCCCC3)cc2c1=O | 0.16 | i
CSc1ccc(CN2CCSCC2)cc1 | 0.91 | i
CC(=O)c1ccc(NC(=S)NCC(c2ccco2)N2CCCC2)cc1 (configuration not stated) | 0.02 | i
O=C1NC(=S)N/C1=C/c1cc([N+](=O)[O-])ccc1O | 0.23 | i
Cc1cccc(C(=O)NCC(=O)OC(C)C(=O)Nc2ccc(Cl)cn2)c1 (configuration not stated) | 0.21 | i
CCOc1ccc(NC(=O)COc2ccc3c(c2)OCO3)cc1 | 0.09 | i
Cc1c(C(N)=O)sc2ncn(CC(=O)NCCc3ccccc3)c(=O)c12 | 2 | i
Cc1cc(C(=O)N/N=C/c2ccc([N+](=O)[O-])s2)c2ccccc2n1 | 1.58 | i
Cc1ccc(O)c(/C=N/NC(=O)c2[nH]ncc2Br)c1 | 1.27 | i
O=C(COC(=O)/C=C/c1ccc(OC(F)F)cc1)NC1CCCCC1 | -0.39 | i

(continued)
structure | KCNQ2 block baseline | KCNQ2 block
Cc1nc2ccc(S(=O)(=O)NCC(=O)N3CCC(N4CCCCC4)CC3)cc2s1 | 1.33 | i
Cc1ccsc1CNC1C2CC3CC(C2)CC1C3 (configuration not stated) | -0.98 | i
O=C(CCCN1C(=O)/C(=C/c2ccccc2Cl)SC1=S)NNC(=O)c1ccncc1 | 2.84 | i
COc1ccccc1C1C(C(=O)c2ccc(C)o2)=C(O)C(=O)N1c1cc(C)on1 (configuration not stated) | -0.18 | i
COc1ccc(CC(=O)NCC(=O)N/N=C/c2cc(Br)ccc2OC)cc1 | 0.28 | i
COc1cccc(C(C(=O)NC(C)(C)C)N(Cc2ccc(F)cc2)C(=O)CCC(=O)Nc2cc(C)on2)c1OC (configuration not stated) | 0.83 | i
O=C(O)c1ccc(NS(=O)(=O)c2cccc(C(=O)Nc3ccc([N+](=O)[O-])cc3)c2)cc1 | 2.45 | i
Cn1c(=O)[nH]c(=O)c2c1nc(N1CCCCCC1)n2CCCSc1nc2ccccc2o1 | -2.8 | i
CC(=O)N1CCN(S(=O)(=O)c2ccc(S(=O)(=O)N3CCCC(C)C3)cc2)CC1 (configuration not stated) | -0.03 | i
Cc1cc(Br)ccc1-n1[nH]c(C)c(C=Nc2cccc3nsnc23)c1=O | -0.45 | i
COc1ccc(CNC(=O)c2cnn3c(C(F)F)cc(C)nc23)cc1 | 0.28 | i
Cc1ccc(-c2ccc(CCC(=O)O)n2-c2ccc(O)cc2)cc1 | -1.54 | i

Remaining list, next part.
structure | KCNQ2 block baseline | KCNQ2 block
CC(C)C[C@H](NC(=O)c1[nH]cnc1C(=O)Nc1ccc(CNC(=O)OC(C)(C)C)cc1)C(=O)OCc1ccccc1 | 4.17 | i
CC/C(=N\NC(=O)c1csc(C)c1C)c1cccs1 | -1.33 | i
Cc1ccc(/C(N)=N/OC(=O)c2ccc3c(c2)OCO3)cc1 | 0.69 | i
CCCCn1c(CCC(=O)O)nc2cc(S(=O)(=O)N(C)C)ccc21 | -0.23 | i
COc1ccc(N2CCN(C(c3cc(OC)ccc3OC)c3nnnn3Cc3ccco3)CC2)cc1 (configuration not stated) | -0.58 | i
CCOC(=O)C1=C(C)NC(=O)NC1 | 1.85 | i
O=C(CC(C(=O)O)c1ccc(F)cc1)c1ccc(Cl)cc1 (configuration not stated) | -0.48 | i
Cc1cc(C)nc(Sc2ncnc(N)c2[N+](=O)[O-])n1 | -1.25 | i
CCOC(=O)c1c(NC(=O)CSc2nnc(CNc3ccc(F)cc3)o2)sc(C)c1C | -0.03 | i
CCCCC1C2C(=O)N(c3ccc(C)cc3)C(=O)C2ON1c1ccccc1 (configuration not stated) | -0.47 | i
Cc1cc(C)c(S(=O)(=O)NCCc2ccccc2)c(C)c1 | -0.13 | i
CN(Cc1ccon1)C(=O)CC1C(=O)NCCN1Cc1cccc(Oc2ccccc2)c1 (configuration not stated) | 2.25 | i

Quoted at random: 2 compounds from above.
structure | KCNQ2 block baseline | KCNQ2 block
Cc1cc(C)nc(Sc2ncnc(N)c2[N+](=O)[O-])n1 | -1.25 | i
CN(Cc1ccon1)C(=O)CC1C(=O)NCCN1Cc1cccc(Oc2ccccc2)c1 (configuration not stated) | 2.25 | i

Additional structures
structure | KCNQ2 block baseline | KCNQ2 block
O=C(O)/C=C/C(=O)Nc1ccc(Oc2ccc(NC(=O)/C=C/C(=O)O)cc2)cc1 | 0.06 | i
O=C(Cc1c(F)cccc1Cl)c1ccc(O)cc1O | -0.5 | i
CN=C(NC1CCCCC1)c1ccc([N+](=O)[O-])cc1 | -0.18 | i
COc1ccc(/C=C/C(=O)Nc2cc(S(=O)(=O)N3CCOCC3)ccc2N2CCCC2)cc1OC | 0.39 | i
CCOCCCN(Cc1cc2cc(C)cc(C)c2[nH]c1=O)C(=O)N(CC)CC | 0.02 | i
CCOC(=O)c1c(-c2ccc(C)o2)csc1NC(=O)CN1CCCCC1 | 0.58 | i
COc1cccc(N2CCN(C(=O)c3oc4ccccc4c3NC(=O)Cc3ccc(OC)c(OC)c3)CC2)c1 | 0.91 | i
O=C(Nc1c(Cl)cc(Cl)cc1C(=O)NCCN1CCOCC1)c1cccc([N+](=O)[O-])c1 | -1.72 | i
COc1ccccc1/C=N/NC(=O)CC(=O)NCc1cccnc1 | -2.04 | i
O=C(CN1CCOCC1)N/N=C/c1ccc(C(=O)O)cc1 | 0.67 | i

Not all compounds are listed; the hit share may differ from the screen's.
